Screening results as filed in PubChem BioAssay.
Sfp PPTase inh: qHTS Assay for Inhibitors of Bacillus subtilis Sfp phosphopantetheinyl transferase (PPTase); 310,000 tested, 3.5% active; Potency, µM, without a hit: max response, negative = inhibition, usual class: inhibitors; AID 1490, 2009; Biochemical Sfp PPTase activity, qHTS; active means well fitted inhibition curve with a large enough effect; inconclusive means small, poorly fitted or top-dose-only effect, or another doubt; inactive means no such curve, though single readings can be large or run the other way;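 further: the enzyme is Sfp with the accession as filed and its product quenches rhodamine fluorescence; potency means the concentration at half of the fitted maximal effect; 0% = enzyme reaction without inhibitor and -100% = no enzyme wells; top concentration of the series not given in the record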
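Reaction rates are the 30-min fluorescence difference (ex 525, em 598 nm) in wells containing 15 nM Sfp, 5 uM rhodamine-CoA and 12.5 uM BHQ-2-YbbR at pH 7.6 with 10 mM MgCl2.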
Menin MLL FP FL: qHTS Assay for Inhibitors Targeting the Menin-MLL Interaction in MLL Related Leukemias: Competition With Fluorescein Labeled MLL-derived Peptide; 290,000 tested, under 10 active; Fluorescence polarization, fluorescein-MLL peptide displacement from menin; AID 1766, 2009; FP activity change, % at 61.4 µM; inconclusive = falling polarisation curve, or a change in total fluorescence; inactive = total fluorescence flat and polarisation flat or rising; no compound was filed as active; the % refers to the polarisation; negative = inhibition;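 further: % of control where 0% means no effect; inhibitors lower the polarisation; unlabelled MLL peptide was the positive control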
An asterisk follows results filed as active; ? = inconclusive; & = joins results of further samples; [ ] = dose if it differs, or a comment. Some of the compounds tested. The share of hits here may be higher or lower than overall.

SMILES	Sfp PPTase inh	Menin MLL FP FL
CC(C)C[C@H](NC(=O)[C@H](CC(C)C)NC(=O)[C@H](Cc1ccc(O)cc1)NC(=O)CNC(=O)[C@H](C)NC(=O)[C@H](CO)NC(=O)[C@H](CC(N)=O)NC(=O)[C@H](CC(C)C)NC(=O)[C@@H](NC(=O)[C@H](Cc1c[nH]c2ccccc12)NC(=O)CN)[C@@H](C)O)C(=O)NCC(=O)N1CCC[C@H]1C(=O)N1CCC[C@H]1C(=O)N1CCC[C@H]1C(=O)NCC(=O)N[C@@H](Cc1ccccc1)C(=O)N[C@@H](CO)C(=O)N1CCC[C@H]1C(=O)N[C@@H](Cc1ccccc1)C(=O)N[C@@H](CCCNC(=N)N)C(N)=O	3%	-9.0
OC[C@H]1O[C@@H](O[C@@H]2OC=C[C@H]3[C@H](O)[C@@H]4O[C@]4(CO)[C@@H]23)[C@H](O)[C@@H](O)[C@@H]1O	-1%	0.4
COc1ccc2[nH]c3c(c2c1)CCNC3=O	-11%	-2.7
CNc1ncncc1-c1ccccc1C	12%	1.8
CCCc1cc2c(n1CCc1ccc(Cl)cc1)C(C)C1CN(C(=O)c3ccccc3)C(C)(C(=O)OC)C21 (stereo unspecified)	1%	12
COc1ccc(-c2nc3cnc(OC)nc3n(C3CC3)c2=O)cc1	9%	-2.1
Cc1nc(NCc2ccccc2)c2nc(-c3ccccc3)n(C(C)CN(C)C)c2n1 (stereo unspecified)	11%	-0.5
COC(=O)C(C(=O)OC)[C@@H]1c2ccccc2[C@H]2C(=C[C@@H](C)[C@H]3C(=O)N(c4ccccc4)C(=O)[C@H]32)N1C(=O)OC	-3%	-0.1[11.7 µM]
CCCCc1nc2c(c3c1CC(C)OC3)CN(CCOc1ccccc1)CC2 (stereo unspecified)	16%	1.7[11.7 µM]
COC(=O)c1ccc(C(NC(=O)OCc2ccccc2)/C(F)=C/[C@@H](C)C(=O)N[C@@H](CO)Cc2ccccc2)cc1 (stereo partly specified)	33%	0.0
CCCCCCCCCCCCCCCC(=O)NCCc1ccc(O)c(O)c1	-6%&12%	0.4&0.3
CCCCCCCCCCCCCCC(F)C(=O)O (stereo unspecified)	23%&0%	0.1
C=CCN1CCc2c(cc(O)c(O)c2Cl)C(c2cccc(C)c2)C1 (stereo unspecified)	-24%	-1.4
COC(=O)C1=C(C(=O)OC)[C@@H]2N(Cc3ccccc3)c3ccccc3[C@@]23C[C@@H](C(=O)OC)N(S(=O)(=O)c2ccc(OC)cc2)C3=N1	-13%	-0.3[11.7 µM]
CCN(CC)CCCCn1c(-c2ccccc2)nc2c(N(CCOC)CCOC)nc(C)nc21	16%	-3.2
FC(F)(F)c1ccc(-c2noc(-c3ccccc3)c2I)cc1	-3%	-0.7
CC[C@H](C)[C@H](NC(=O)[C@@H](NC(=O)[C@@H](CC(=O)NO)Cc1ccccc1)[C@@H](C)CC)C(=O)O	-5%	0.9
COC(=O)N1CCC2(CCCN(c3ncccn3)C2)CC1	8%	-5.5
C#CCn1c(=O)c2c(nc(/C=C/c3cccc(OC)c3)n2C)n(CCCOP(=O)(O)O)c1=O	16%	-4.5
c1cncc(CNc2ncncc2-c2ccoc2)c1	79µM*	?
C=CCOC(=O)N[C@@H](c1ccccc1)[C@@H](C)[N+](=O)[O-]	-10%	-0.5
O=C1CCCC=C1[C@@H](O)COCc1ccccc1	11%	2.5[11.7 µM]
C=CCOC(=O)N[C@H](/C(C(=O)OC)=C(\C)NCc1ccccc1)c1ccc(C)cc1	-10%	3.0
CCNc1ncc2nc(-c3cc(F)cc(F)c3)c(=O)n(Cc3ccc(F)cc3)c2n1	4%	8.9
CC(C)CN1CCC2(CC1)CCN(C(=O)c1cccn1C)CC2	23%	-1.0
SMILES	Sfp PPTase inh	Menin MLL FP FL
COc1cc(-c2oc3cc(O)cc(O)c3c(=O)c2O[C@@H]2O[C@H](CO)[C@@H](O)[C@H](O)[C@H]2O)cc(OC)c1O	6%	?
COC(=O)c1ccc(C(NC(=O)OCc2ccccc2)/C(C)=C/[C@@H](C)C(=O)NCc2cccnc2)cc1 (stereo partly specified)	16%	-2.8
Cc1noc(C)c1-c1ccc2ncnc(N3CCN(C)CC3)c2c1	20%	-1.3
Cn1cccc1C(=O)N1CCC2(CCN(Cc3ccc(C#N)cc3)CC2)CC1	14%	-4.8
Cn1c(-c2ccccc2)c(O)c(=O)c2ccccc21	26%	2.3[11.7 µM]
Nc1ncnc2c1[nH]c(=O)n2C1OC(CO)C(O)C1O (stereo unspecified)	11%	-1.5
CCC/C=C/C(C)O (stereo unspecified)	-1%	0.4
COc1cccc(Cn2c(=O)c(-c3cc(F)cc(F)c3)nc3cncnc32)c1	-5%	8.4
C=COC(=O)/C=C/C	16%	3.1
c1ccc(Nc2ncnc3ccc(-c4ccc5c(c4)OCO5)cc23)cc1	11%	1.1
CCOc1cccc2oc(-c3ccccc3Cl)cc(=O)c12	-23%	1.4[94.6 µM]
COc1ccccc1CN1CCCC2(CCN(C(=O)c3cc(C(F)(F)F)cc(C(F)(F)F)c3)CC2)C1	10%	-0.1
O=C(O)[C@@]1(CCCCCCOc2ccc(Cl)cc2)CO1	-9%	2.7
O=c1cc(-c2ccccc2O)oc2c1ccc1ccccc12	1%	8.0
Cc1noc(C)c1-c1ccc2ncnc(NCc3ccccc3F)c2c1	10%	3.9
CC[C@H](C)[C@H](NC(=O)[C@H](CCC(=O)O)NC(=O)[C@@H](N)CO)C(=O)N[C@@H](CCC(N)=O)C(=O)N[C@@H](CC(C)C)C(=O)N[C@@H](CCSC)C(=O)N[C@@H](Cc1cnc[nH]1)C(=O)N[C@@H](CC(N)=O)C(=O)N[C@@H](CC(C)C)C(=O)NCC(=O)N[C@@H](CCCCN)C(=O)N[C@@H](Cc1cnc[nH]1)C(=O)N[C@@H](CC(C)C)C(=O)N[C@@H](C)C(=O)N[C@@H](CO)C(=O)N[C@H](C(=O)N[C@@H](CCC(=O)O)C(=O)N[C@@H](CCCNC(=N)N)C(=O)N[C@@H](CCSC)C(=O)N[C@@H](CCC(N)=O)C(=O)N[C@@H](Cc1c[nH]c2ccccc12)C(=O)N[C@@H](CC(C)C)C(=O)N[C@@H](CCCNC(=N)N)C(=O)N[C@@H](CCCCN)C(=O)N[C@@H](CCCCN)C(=O)N[C@@H](CC(C)C)C(=O)N[C@@H](CCC(N)=O)C(=O)N[C@@H](CC(=O)O)C(=O)N[C@H](C(=O)N[C@@H](Cc1cnc[nH]1)C(=O)N[C@@H](CC(N)=O)C(=O)N[C@@H](Cc1ccccc1)C(=O)O)C(C)C)C(C)C	3%	0.6
COC(=O)c1ccc(C(NC(=O)OCc2ccccc2)/C(C)=C/[C@@H](C)C(=O)NCc2cc(C)on2)cc1 (stereo partly specified)	5%	0.6
CC(C)CN(C[C@@H](O)[C@H](Cc1ccccc1)NC(=O)O[C@H]1CCOC1)S(=O)(=O)c1ccc(N)cc1	14%	0.6
O=S(=O)(c1ccccc1)N1CCC[C@@]2(CCN(c3ccccc3)C2)C1	1%	7.6
CCCC[C@H]1CCCO[C@@](C(=O)NCc2ccccc2)(C(F)(F)F)C1	8%	2.0
COCC(=O)N1CCC2(CC1)CN(c1ccccn1)C2	-7%	-9.4
C/C=C/OC(=O)NC(c1ccccc1)[C@@]1(C(=O)OC)CCCC1=O (stereo partly specified)	12%	-0.8[11.7 µM]
CCCC[C@@H]1C[C@H]1C(NC(=O)Cc1ccccc1)c1ccc(Cl)cc1 (stereo partly specified)	10%	0.6
O=C(Nc1cccc(F)c1)N1CCCC2(CCN(C(=O)c3cc(C(F)(F)F)cc(C(F)(F)F)c3)CC2)C1	24%	15
O=c1c(-c2cc(F)cc(F)c2)nc2cnc(N3CCOCC3)nc2n1Cc1ccc(F)cc1	27%	-7.7
SMILES	Sfp PPTase inh	Menin MLL FP FL
COc1cccc(Nc2ncc3nc(-c4ccccc4)c(=O)n(C4CC4)c3n2)c1	16%	?
CC(=O)N[C@H]1CSSC[C@@H](C(=O)N2CCC[C@H]2C(=O)N2CCC[C@H]2C(=O)N[C@@H](CCCCN)C(=O)N[C@@H](CC(=O)O)C(N)=O)NC(=O)CNC(=O)[C@H](Cc2c[nH]c3ccccc23)NC(=O)[C@H](CCCNC(=N)N)NC(=O)[C@@H](Cc2ccc(Cl)c(Cl)c2)NC(=O)[C@H](Cc2cnc[nH]2)NC(=O)[C@H](CCC(=O)O)NC1=O	17%	-2.9
CC(C)=NO[C@@H](C)c1cn([C@H](CO)Cc2ccccc2)nn1	6%&29%	-1.8&1.4[11.7 µM]
CCCCCCCCCCCC(=O)O[C@H](CC(=O)O)C[N+](C)(C)C	-1%	-6.6
CCC(C)C1/C=C\CCCC(=O)N1Cc1ccc(C)cc1 (stereo unspecified)	-14%	-3.7[94.6 µM]
CCOC(=O)c1ncc2[nH]c3cccc(OC(C)C)c3c2c1C	-12%	-1.0
COc1nc2cc(C)ccc2cc1-c1noc(-c2cccnc2)n1	13%	0.2
C/C(=C\C[Si](C)(C)C)CC[C@H](O)C1=CCCCC1=O	9%	-0.2
COc1ccc(Oc2ncc3nc(C)c(=O)n(Cc4cccs4)c3n2)cc1	-4%	4.1
COc1ccc(-c2nc3cnc(Oc4cccc(Cl)c4)nc3n(C3CC3)c2=O)cc1	22%	-1.4
O=c1[nH]c(=O)n([C@@H]2C[C@H](O)[C@H](CO)O2)cc1C(F)(F)F	33%[activator]	1.1[24.8 µM]
Cc1noc(C)c1C(=O)N1CCC[C@@]2(CCN(c3ccccc3)C2)C1	6%	?
CCN(CC)C(=S)S	45µM*	4.7
C=CC[C@@H]1C=C[C@@H](O/N=C2/[C@H]3O[C@@H]3[C@@H](O)[C@H]3[C@H]2CCn2c(=O)n(-c4ccccc4)c(=O)n23)[C@@H](CO)O1	3%	0.0[11.7 µM]
COC(=O)C1(C(=O)OC)Cc2conc2[C@H]1c1ccccc1	-4%&20%&-3%	0.8&5.4&-1.3
CC(=O)NCCNc1ncnc2ccc(-c3ccccc3C)cc12	12%	0.1
COC(=O)C/C=C\[C@@H](C)[C@@H](/C=N\OC[C@@H](O)[C@H]1O[C@H]2OC(C)(C)O[C@H]2[C@@H]1O)OC	14%	1.9[11.7 µM]
CC(=O)OCC(NC(=O)C(CCCCNC(=O)OCc1ccccc1)NC(=O)OC(C)(C)C)C1OC(n2ccc(=O)[nH]c2=O)C(OC(C)=O)C1OC(C)=O (stereo unspecified)	9%	-2.0
O=C1OC(CO)C(O)C(O)C1O (stereo unspecified)	9%	1.6
CC(=O)Oc1cc(-c2coc3cc(OC(C)=O)c(OC(C)=O)c(OC(C)=O)c3c2=O)cc(OC(C)=O)c1OC(C)=O	-91%	?
CC(=O)c1ccc(N2CCOCC2)cc1O	18%	-0.4
COc1ccccc1-c1nc(Nc2ccncc2)c2ccccc2n1	-17%	2.6
O=C1[C@H]2[C@H]3[C@H](O)[C@H](O)C/C(=N/OCc4ccccc4)[C@@H]3CC[C@@H]2C(=O)N1C[C@@H]1CCCO1	-1%	-0.4[11.7 µM]
CC(C)CCCC(C)C1CCC2C3CC(O)[C@@]4(O)CC(O)CC[C@@]4(C)C3CC[C@@]12C (stereo partly specified)	29%	-8.0
CC(C)C[C@H](NC(=O)[C@H](CC(C)C)NC(=O)[C@H](Cc1ccccc1)NC(=O)[C@@H](N)CO)C(=O)N[C@@H](CCCN=C(N)N)C(=O)N[C@@H](CC(N)=O)C(=O)O	-5%	-4.8
SMILES	Sfp PPTase inh	Menin MLL FP FL
CCCCCCCCCCCCCC[n+]1ccc(C)cc1	56µM*	-2.3
CO/N=C\[C@@H](OC)[C@H](C)/C=C\CC(=O)OC	8%	0.5[11.7 µM]
CCCCCCCCCCCCC/C=C\[C@@H](O)[C@@H](N)CO	?	0.0
CC(C)=CCC/C(C)=C/CO	23%&-9%	-2.6&-0.4
C#C[C@]1(O)CCC2C3CCC4=Cc5oncc5C[C@@]4(C)C3CC[C@@]21C (stereo partly specified)	-5%	-0.1
Cc1cc(O)c2c(c1O)C(=O)c1c(O)cc(C)c(O)c1C2=O	-5%	?
Cc1cc(C)cc(C#CC2C=CC(Oc3ccc(C4CCCC4)cc3)C(CO)O2)c1 (stereo unspecified)	10%	-0.4[11.7 µM]
COc1ccccc1CNc1ccnc(-c2c(C)noc2C)n1	-22%	-0.8
